Source: PubChem (Broad Institute)
NOMO-1 viab: STK33 inhibitor candidate reducing NOMO-1 cell viability; NOMO-1 AML viability, CellTiter-Glo luminescence, 72 h; inhibition, % (test concentration not listed); 37,000 compounds, 7.5% hits;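 active = most replicates above 80%; inconclusive = exactly half above 80%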;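 note: wells of about 30 µL received 25 nL stock; 0% = median of vehicle wells and 100% = reference inhibitor level; the first replicate is given; inactives centre near 10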
Numbers without * were called inactive; ? = inconclusive. Not all compounds are listed (hit frequency here may not be typical).

SMILES	NOMO-1 viab
C[C@@H]1CCCCO[C@H](CN(C)C)[C@@H](C)CN([C@H](C)CO)C(=O)c2cc(NS(=O)(=O)c3cn(C)cn3)ccc2O1	16
C[C@@H]1CN([C@H](C)CO)C(=O)c2cc(NC(=O)Cc3ccccc3)ccc2O[C@@H]1CN(C)C	15
C[C@@H]1CN([C@@H](C)CO)C(=O)c2cccc(NC(=O)Nc3ccc(F)cc3)c2O[C@H]1CN(C)CC1CC1	53
Cc1sc2ncnc(SCC(=O)NCc3ccccc3)c2c1C	21
COc1ccc(C)cc1S(=O)(=O)NCCO	20
COc1ccc(CN(C)C[C@@H]2Oc3ccc(NC(=O)Nc4ccc(C(F)(F)F)cc4)cc3C(=O)N([C@@H](C)CO)C[C@@H]2C)cc1	100*
CCc1ccccc1OCC(=O)Nc1cc(OC)ccc1OC	41
C[C@H](CO)N1C[C@H](C)[C@H](CN(C)C(=O)Nc2ccc3c(c2)OCO3)Oc2ccc(NC(=O)Nc3ccc(F)cc3)cc2C1=O	16
C[C@H]1CN([C@@H](C)CO)C(=O)c2cc(NC(=O)Nc3cccc4ccccc34)ccc2O[C@H]1CN(C)C(=O)Nc1ccc2c(c1)OCO2	8
COc1cc(CO)ccc1OCC(=O)Nc1ccc(C)cc1	13
COc1ccc(NC(=O)CSc2nc(-c3ccccc3)cc(C(F)(F)F)n2)c([N+](=O)[O-])c1	13
CCCC(CCC)c1nc2ccncc2[nH]1	-7
CNC[C@H]1Oc2c(NC(=O)c3cc(C)nn3C)cccc2C(=O)N([C@H](C)CO)C[C@H]1C	20
C[C@H]1CN([C@@H](C)CO)C(=O)Cc2cc(NC(=O)c3ccncc3)ccc2O[C@H]1CN(C)S(=O)(=O)c1ccc(F)cc1	-13
Cc1noc(C)c1S(=O)(=O)Nc1ccc2c(c1)C(=O)N([C@H](C)CO)C[C@H](C)[C@@H](CN(C)C(=O)Nc1ccc(C(F)(F)F)cc1)O2	-16
O=C(Nc1nc(-c2ccccc2)cs1)C12CC3CC(CC(C3)C1)C2	108*
CNC[C@H]1Oc2c(NC(=O)c3ccc(-c4nccs4)cc3)cccc2C(=O)N([C@H](C)CO)C[C@H]1C	4
Cc1ccc(C(C)C)cc1OCC(O)Cn1cnc2ccccc21 (stereo unspecified)	60
Cc1ccc(S(=O)(=O)Nc2ccc3c(c2)C(=O)N([C@@H](C)CO)C[C@H](C)[C@@H](CN(C)C(=O)Nc2ccccc2)O3)cc1	23
CC(C)NC(=O)Nc1cccc2c1O[C@@H](CN(C)Cc1ccc(Cl)c(Cl)c1)[C@H](C)CN([C@H](C)CO)C2=O	63
C[C@H](CO)N1C[C@H](C)[C@H](CN(C)C(=O)Nc2ccc(C(F)(F)F)cc2)Oc2c(NS(=O)(=O)c3ccccc3)cccc2C1=O	27
C[C@H](CO)N1C[C@H](C)[C@H](CN(C)Cc2ccc(C(F)(F)F)cc2)Oc2c(NS(=O)(=O)c3cccs3)cccc2C1=O	48
C[C@H](CO)N1C[C@H](C)[C@@H](CN(C)CC2CC2)Oc2c(NC(=O)C3CC3)cccc2C1=O	19
C[C@H](CO)N1C[C@H](C)[C@@H](CN(C)C(=O)NC2CCCCC2)Oc2c(NC(=O)Nc3ccc(C(F)(F)F)cc3)cccc2C1=O	85*
COc1ccc(NC(=O)N(C)C[C@@H]2Oc3ccc(NS(=O)(=O)c4ccc(OC)cc4)cc3CC(=O)N([C@H](C)CO)C[C@@H]2C)cc1	20
CSc1scc2c1-c1nn(C(=O)c3ccc(Cl)cc3)cc1CC2	14
COc1ccc(S(=O)(=O)N(C)C[C@@H]2Oc3ccc(NS(=O)(=O)c4ccccc4)cc3CC(=O)N([C@H](C)CO)C[C@H]2C)cc1	8
C[C@@H]1O[C@@H](O[C@@H]2[C@@H](O)[C@H](OC(=O)[C@]34CCC(C)(C)CC3C3=CCC5[C@@]6(C)CC[C@H](OC7OC(CO)C(OC8OCC(O)C(O)C8O)C(O)C7O)C(C)(C)C6CC[C@@]5(C)[C@]3(C)CC4O)O[C@H]2CO)[C@H](O)[C@H](O)[C@H]1O[C@H]1OC[C@](O)(CO)[C@H]1O (stereo partly specified)	95*
C[C@@H]1CN([C@@H](C)CO)C(=O)c2cccc(NS(=O)(=O)c3ccc(F)cc3)c2O[C@H]1CN(C)Cc1ccc(-c2ccccc2)cc1	34
COc1ccc(S(=O)(=O)NCc2ccco2)c(Cl)c1Cl	31
C[C@H]1CN([C@@H](C)CO)C(=O)c2cccc(NS(=O)(=O)c3ccc(F)cc3)c2O[C@H]1CN(C)Cc1ccc2c(c1)OCO2	26
CCOC(=O)CSc1nnc(-c2ccc(OC)cc2)n1-c1ccccc1C	26
CNC[C@H]1Oc2ccc(NS(=O)(=O)c3cccs3)cc2CC(=O)N([C@H](C)CO)C[C@H]1C	1
OC(CNC1CCCC1)Cn1c2ccccc2c2ccccc21 (stereo unspecified)	96*
Cc1nn(-c2ccccc2)c(C)c1Sc1n[nH]c(=O)[nH]c1=O	34
C[C@@H]1CN([C@@H](C)CO)C(=O)c2cccc(NS(C)(=O)=O)c2O[C@@H]1CN(C)S(C)(=O)=O	18
C[C@@H]1CCCCO[C@@H](CN(C)CC2CC2)[C@@H](C)CN([C@H](C)CO)C(=O)c2cc(NC(=O)Nc3ccccc3)ccc2O1	?
C[C@@H]1CN([C@H](C)CO)C(=O)c2cc(NC(=O)Nc3cccc4ccccc34)ccc2O[C@H]1CN(C)S(=O)(=O)c1ccc(F)cc1	-3
O=C(NCCO)c1cc[n+](CC(=O)c2cccs2)cc1	-7
C[C@@H]1CCCCO[C@@H](CN(C)C(=O)CCC(F)(F)F)[C@@H](C)CN([C@H](C)CO)C(=O)c2cc(NC(=O)C3CCCCC3)ccc2O1	14
Nc1c(N2CCOCC2)c2ccccc2oc1=O	23
C[C@@H]1CN([C@@H](C)CO)C(=O)Cc2cc(NC(=O)Nc3cccc4ccccc34)ccc2O[C@@H]1CN(C)Cc1ccc(Oc2ccccc2)cc1	77
CC1(C)O[C@@H]2CC3C4C[C@H](F)C5=CC(=O)CC[C@]5(C)C4[C@@H](O)C[C@]3(C)[C@]2(C(=O)CO)O1 (stereo partly specified)	-2
C[C@H]1CN([C@@H](C)CO)C(=O)c2cc(NS(=O)(=O)c3ccccc3)ccc2O[C@H]1CN(C)S(=O)(=O)c1ccc(F)cc1	21
Cc1ccc(S(=O)(=O)Nc2ccc3c(c2)CC(=O)N([C@@H](C)CO)C[C@H](C)[C@H](CN(C)S(=O)(=O)c2cccs2)O3)cc1	22
Cc1noc(C)c1NC(=O)N(C)C[C@H]1Oc2ccc(NC(=O)NC(C)C)cc2CC(=O)N([C@@H](C)CO)C[C@@H]1C	3
C=CC(C)(O)CC/C=C(\C)C(=O)OCC1CCC2C(C(=O)O)=COC(OC3OC(CO)C(O)C(O)C3O)C12 (stereo unspecified)	-17
Cc1noc(C)c1NC(=O)Nc1ccc2c(c1)CC(=O)N([C@H](C)CO)C[C@@H](C)[C@@H](CN(C)Cc1ccc(Cl)c(Cl)c1)O2	20
COc1ccc(NC(=O)CN(C)S(=O)(=O)c2ccc(F)cc2)cc1OC	-27
C[C@@H]1CN([C@H](C)CO)C(=O)Cc2cc(NC(=O)CCCCCC(=O)Nc3ccccc3N)ccc2O[C@@H]1CN(C)C(=O)Nc1cccc2ccccc12	8
Cc1noc(C)c1NC(=O)Nc1ccc2c(c1)C(=O)N([C@H](C)CO)C[C@H](C)[C@@H](CN(C)CC1CCCCC1)OCCCC[C@@H](C)O2	-17
C[C@H](CO)N1C[C@H](C)[C@@H](CN(C)S(=O)(=O)c2ccccc2)Oc2ccc(NC(=O)Cc3cn(C)c4ccccc34)cc2C1=O	-1
Oc1ccc2ccccc2c1C1Nc2ccccc2-n2cccc21 (stereo unspecified)	58
Cn1c(SCC(N)=O)nnc1-c1cccc(Cl)c1	-1
O=c1cc(NCc2ccccc2)n(-c2ccccc2)c(=O)n1-c1ccccc1	0
c1ccc(CSc2ncnc3c2oc2ccccc23)cc1	27
C[C@H](CO)N1C[C@H](C)[C@H](CN(C)Cc2ccc(C(=O)O)cc2)Oc2c(NC(=O)Nc3ccc(F)cc3)cccc2C1=O	13
COc1ccc(CN(C)C[C@@H]2Oc3c(NC(=O)Nc4ccc(OC)cc4)cccc3C(=O)N([C@H](C)CO)C[C@H]2C)cc1	65
C[C@@H]1CN([C@H](C)CO)C(=O)Cc2cc(NC(=O)C3CCCCC3)ccc2O[C@H]1CN(C)Cc1ccc(C(=O)Nc2ccccc2N)cc1	?
Cc1c(Br)c([N+](=O)[O-])nn1C(C)C(=O)NCC1CCCO1 (stereo unspecified)	1
Other structures follow.
SMILES	NOMO-1 viab
COc1ccccc1C1CCN(Cc2cccc3ccccc23)CC1	100*
O=C(OCc1ccc(-c2cccc(Cl)c2Cl)o1)c1cccnc1	-2
CC1CCc2c(sc3ncn(CC(=O)Nc4ccccc4C(F)(F)F)c(=O)c23)C1 (stereo unspecified)	28
CC1(C)Oc2ccc3ccc(=O)oc3c2CC1O (stereo unspecified)	3
O=C(c1ccco1)N1CCN(CCOc2ccccc2)CC1	24
COC(=O)c1ccc(NC(=O)CN(c2ccc3c(c2)OCCO3)S(C)(=O)=O)cc1	2
CCOC(=O)C1=C(C)NC(=S)NC1c1ccc(-c2ccccc2Cl)o1 (stereo unspecified)	36
COC(=O)c1cc(NC(=S)NCc2cccnc2)cc(C(=O)OC)c1	106*
C[C@H](CO)N1C[C@H](C)[C@@H](CN(C)C(=O)Nc2ccc(F)cc2)Oc2ccc(NS(=O)(=O)c3cccs3)cc2C1=O	16
C[C@H]1CN([C@@H](C)CO)C(=O)c2cc(NC(=O)Nc3ccc(F)cc3)ccc2O[C@@H]1CN(C)S(=O)(=O)c1cn(C)cn1	4
C[C@@H]1CN([C@H](C)CO)C(=O)Cc2cc(NS(=O)(=O)c3ccccc3)ccc2O[C@H]1CN(C)Cc1ccc2c(c1)OCO2	30
COc1ccc(NC(=O)c2cc(-c3ccccn3)nc3c(C)cc(C)cc23)c([N+](=O)[O-])c1	68
Nc1cc(=O)[nH]c(=O)n1-c1ccc(Cl)cc1	-10
Cc1sc2ncnc(SCC(=O)c3ccc(Cl)c(Cl)c3)c2c1C	5
C[C@H](CO)N1C[C@H](C)[C@H](CN(C)Cc2ccc(-c3ccccc3)cc2)Oc2c(NC(=O)c3nc4ccccc4s3)cccc2C1=O	?
COc1cc(NC(=O)CCC(=O)O)ccc1NC(C)=O	-5
C[C@H](CO)N1C[C@H](C)[C@H](CN(C)C(=O)NC2CCCCC2)Oc2ccc(NC(=O)c3ccncc3)cc2C1=O	12
Nc1cc(N)nc(SCC(=O)Nc2ccc3ccccc3c2)n1	5
C[C@@H]1CN([C@H](C)CO)C(=O)c2cccc(NC(=O)Nc3cccc4ccccc34)c2O[C@H]1CN(C)S(=O)(=O)c1ccc(Cl)cc1	-4
Cc1ccc(S(=O)(=O)Nc2cccc3c2O[C@H](CN(C)C(=O)Nc2ccc(C(F)(F)F)cc2)[C@@H](C)CN([C@H](C)CO)C3=O)cc1	3
CC(=O)c1ccc(NC(=O)CSc2nnc(N)s2)cc1	15
O=C1C=C(c2ccc(Br)cc2)OC(=O)C1C(=O)c1ccc(Br)cc1 (stereo unspecified)	-22
CC(C)NC(=O)N(C)C[C@@H]1Oc2ccc(NC(=O)NC3CCCCC3)cc2C(=O)N([C@H](C)CO)C[C@@H]1C	5
C[C@@H]1CN([C@H](C)CO)C(=O)c2cccc(NC(=O)CCCCCC(=O)Nc3ccccc3N)c2O[C@H]1CN(C)CC1CC1	122*
O=C(COc1ccc(Cl)cc1)Nc1ccc2nn(-c3ccc(F)cc3)nc2c1	13
Cc1ccc(-n2nnnc2SCC(=O)c2ccc(O)c(O)c2)cc1	76
C[C@@H]1CN([C@H](C)CO)C(=O)Cc2cc(NC(=O)Cc3ccccc3)ccc2O[C@@H]1CN(C)Cc1ccc(-c2ccccc2)cc1	?
C[C@@H]1CN([C@@H](C)CO)C(=O)c2cc(NC(=O)C3CC3)ccc2O[C@@H]1CN(C)Cc1ccncc1	18
Cc1cccc(C(=O)Nc2cc(C)ccc2NC(=O)COc2ccccc2)c1	4
COc1ccc(NC(=O)N(C)C[C@@H]2Oc3c(NC(=O)c4cnccn4)cccc3C(=O)N([C@@H](C)CO)C[C@@H]2C)cc1	3
Cc1noc(C)c1NC(=O)N(C)C[C@@H]1Oc2c(NC(=O)C3CCOCC3)cccc2C(=O)N([C@H](C)CO)C[C@@H]1C	15
Cc1cc(C(=O)Nc2cccc3c2O[C@@H](CN(C)Cc2ccc(C(F)(F)F)cc2)[C@H](C)CN([C@@H](C)CO)C3=O)n(C)n1	23
COC(=O)c1ccc(C(=O)OC)c(NC(=O)COc2ccc3oc4c(c3c2)CCCC4)c1	-8

Part of the list above, with bars between the fields.
molecule | NOMO-1 viab
Cc1ccc(S(=O)(=O)Nc2cccc3c2O[C@H](CN(C)C(=O)Nc2ccc(C(F)(F)F)cc2)[C@@H](C)CN([C@H](C)CO)C3=O)cc1 | 3
CC(=O)c1ccc(NC(=O)CSc2nnc(N)s2)cc1 | 15
O=C1C=C(c2ccc(Br)cc2)OC(=O)C1C(=O)c1ccc(Br)cc1 (stereo unspecified) | -22
CC(C)NC(=O)N(C)C[C@@H]1Oc2ccc(NC(=O)NC3CCCCC3)cc2C(=O)N([C@H](C)CO)C[C@@H]1C | 5
C[C@@H]1CN([C@H](C)CO)C(=O)c2cccc(NC(=O)CCCCCC(=O)Nc3ccccc3N)c2O[C@H]1CN(C)CC1CC1 | 122*
O=C(COc1ccc(Cl)cc1)Nc1ccc2nn(-c3ccc(F)cc3)nc2c1 | 13
Cc1ccc(-n2nnnc2SCC(=O)c2ccc(O)c(O)c2)cc1 | 76
C[C@@H]1CN([C@H](C)CO)C(=O)Cc2cc(NC(=O)Cc3ccccc3)ccc2O[C@@H]1CN(C)Cc1ccc(-c2ccccc2)cc1 | ?
C[C@@H]1CN([C@@H](C)CO)C(=O)c2cc(NC(=O)C3CC3)ccc2O[C@@H]1CN(C)Cc1ccncc1 | 18
Cc1cccc(C(=O)Nc2cc(C)ccc2NC(=O)COc2ccccc2)c1 | 4
COc1ccc(NC(=O)N(C)C[C@@H]2Oc3c(NC(=O)c4cnccn4)cccc3C(=O)N([C@@H](C)CO)C[C@@H]2C)cc1 | 3
Cc1noc(C)c1NC(=O)N(C)C[C@@H]1Oc2c(NC(=O)C3CCOCC3)cccc2C(=O)N([C@H](C)CO)C[C@@H]1C | 15
